# Screening data (PubChem)
# Rango release inh: inhibitors of RanGTP-induced Rango-importin beta complex dissociation | Biochemical FRET Rango-importin beta, RanGTP-induced dissociation | Potency, µM (titrated, usually from 46.1 µM), without a hit: at the highest dose activity change, negative = inhibition | hit rate 0.071% among 340,000 | AID 540253; active means falling FRET ratio curve, often poorly fitted, with flat reads before Ran was added; inconclusive means other falling curves, or compound fluorescence or quenching; inactive means flat or rising ratio curve;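 further: potency means the concentration at half of the fitted maximal effect; % of control where 0% means no effect; nearly all actives have a fitted effect of over 45% in size; -100% = wells without RanGTP and RCC1; the record marks most hits as doubtful in a second field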
#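 Rango FRET biosensor (snurportin-1 IBB flanked by N-terminal EYFP and C-terminal CFP10) at 0.1 uM, with 0.25 uM importin beta in PBS, 1mM DTT, 0.02% Tween-20, 0.1% BSA. 0.6 uM Ran, 2mM GTP and 0.2 uM RCC1 were then added for 45 min at room temperature. Inhibition read as loss of FRET rise.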
# Rango-impB inh: inhibitors of Rango-importin beta complex formation; hit rate 0.031% among 340,000; Potency, µM (titrated, usually from 92.2 µM), inactives show top-dose inhibition of complex formation; Q14974; Rango CFP/YFP FRET sensor + importin beta, 45 min; AID 540263; active = rising FRET ratio curve, often small or poorly fitted; inconclusive = mostly compound fluorescence or quenching in the first reads; inactive = flat curves in all reads;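 further: potency means the concentration at half of the fitted maximal effect; 0% = DMSO wells and 100% = buffer wells lacking importin beta; nearly all actives have a fitted effect of over 15% in size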
#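 FRET biosensor Rango (snurportin 1 IBB between N-terminal EYFP and C-terminal Cerulean), 50 nM in PBS/1 mM DTT/0.02% Tween-20/0.1% BSA, preincubated 5 min RT with compound; 0.125 microM importin beta added, 45 min RT, CFP/YFP FRET ratio read.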
# GLA inh pH 4.5: inhibitors of human alpha-galactosidase A at pH 4.5 | P06280 | purified enzyme, 4-MU-alpha-Gal fluorescence, pH 4.5 | activity change, negative = inhibition, % at 105 µM | 230,000 tested, under 10 active | AID 1467; inconclusive = small, poorly fitted or top-dose-only inhibition, or a rising curve; inactive = flat fitted curve, though single readings scatter; no compound was filed as active;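 further: 0% = full activity with enzyme and -100% = basal without enzyme; dose as in the result columns while the protocol names 77 µM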
# Target sequence (P06280 whole entry, looked up): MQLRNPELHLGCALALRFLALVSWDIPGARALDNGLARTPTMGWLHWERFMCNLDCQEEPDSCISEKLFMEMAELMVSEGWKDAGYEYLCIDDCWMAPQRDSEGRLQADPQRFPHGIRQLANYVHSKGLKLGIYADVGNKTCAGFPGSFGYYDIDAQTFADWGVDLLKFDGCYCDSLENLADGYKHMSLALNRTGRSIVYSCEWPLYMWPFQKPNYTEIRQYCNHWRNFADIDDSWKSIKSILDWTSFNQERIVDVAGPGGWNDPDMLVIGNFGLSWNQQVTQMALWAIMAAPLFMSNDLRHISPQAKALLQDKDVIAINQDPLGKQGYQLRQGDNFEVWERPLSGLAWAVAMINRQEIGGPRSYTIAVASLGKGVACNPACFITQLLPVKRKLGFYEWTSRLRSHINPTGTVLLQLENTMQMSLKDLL
# miR-21 reporter: raises the signal of a miR-21 reporter; AID 2288; Potency, µM (titrated, usually from 38.3 µM), for the others: at the top dose reporter change, positive = more light; HeLa miR-21 FLuc reporter, luciferase, 48 h; 340,000 tested, under 10 active; active = well fitted rising curve with a large enough effect; inconclusive = small, poorly fitted or top-dose-only effect; inactive = no such curve, though single readings can be large or run the other way;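 further: % of control where 0% means no effect; miR-21 action dims this reporter so a rising signal means less miR-21 action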
#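 HeLa miR-21-FLuc reporter line, endogenous miR-21; 2000 cells/well in DMEM/10% FBS; compound titration up to ~40uM final, 48 h, 37 degree Celsius; luciferase detection reagent, 15 min lysis, CCD luminescence.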
# Numbers without * were called inactive; ? = inconclusive; . = not tested or not shown; & = joins results of further samples. This is a subset. The share of hits here may be higher or lower than overall.
item	Rango release inh	Rango-impB inh	GLA inh pH 4.5	miR-21 reporter	compound
1	6%	2.0%	5	-4%	N#Cc1c(/N=C/c2ccco2)oc(-c2ccccc2)c1-c1ccccc1
2	-2%	1.6%	.	-1%	COCCNC(=O)C(c1ccc(C)cc1)N(C(=O)CCC(=O)Nc1ccccn1)c1ccc(C)cc1 (stereo not drawn)
3	8%	0.1%	-10	-2%	O=C(O)C1C2C=CC(C2)C1C(=O)Nc1ccc(C(=O)N2CCCCC2)cc1 (stereo not drawn)
4	-1%	1.5%	-2	1%	CC1(C)CC(Cc2nc(=S)[nH][nH]2)C(=O)O1 (stereo not drawn)
5	-2%	0.2%	.	-63%	COCCCNC(=O)C1CCN(C(=O)c2oc3cc4sc(N(C)C)nc4cc3c2C)CC1
6	-19%	2.4%	-4	-7%	Cc1ccc2cc(CN(CCCN(C)C)C(=O)NCc3ccccc3)c(=O)[nH]c2c1C
7	-2%	0.1%	.	.	O=C(COC(=O)c1c(F)cccc1Cl)NCC1CCCCC1
8	-13%	0.6%	.	.	Cc1ccc(Cl)c(NC(=O)COC(=O)c2nn(-c3ccccc3)cc2O)c1Cl
9	-13%	0.2%	1	-28%	c1ccc2c(c1)oc1c(NCCN3CCOCC3)ncnc12
10	-5%	-4.6%	.	1%	COc1ccc(N2CC(C(=O)Nc3nnc(C4CCCCC4)s3)CC2=O)cc1 (stereo not drawn)
11	-12%	-0.8%	.	.	O=C(Cc1cccs1)N[C@@H]1c2ccccc2CC[C@H]1OCc1ccccc1
12	12%	0.0%	-2	-19%	CC(=O)c1ccc(NC(=O)N2CCc3ccccc3C2)cc1
13	-16%	0.4%	.	.	COc1cc2ccccc2cc1C(=O)OCC(=O)c1c(N)n(C)c(=O)n(C)c1=O
14	2%	5.0%	.	4%	Cc1[nH]c(C)c(S(=O)(=O)N2CCN(c3ccccc3F)CC2)c1C(=O)N1CCCCC1
15	?	?	?	4%	O=c1cc(CN2CCN(S(=O)(=O)c3ccc4c(c3)OCCO4)CC2)c2ccc(O)cc2o1
16	12%	3.9%	-1	4%	NS(=O)(=O)c1ccc(CCNC(=O)C2CCN(S(=O)(=O)c3ccccc3)CC2)cc1
17	2%	1.2%	0	-2%	Cc1ccccc1C(=O)NC(NCc1ccco1)C(Cl)(Cl)Cl (stereo not drawn)
18	-19%	4.0%	5	-16%	O=C(/C=C/c1ccc(Cl)cc1)NC(=S)Nc1ccc(N2CCOCC2)c(Cl)c1
19	1%	0.0%	7	5%	CC(C)c1ccc(N(CC(=O)NN=C2CCN(C)CC2)S(=O)(=O)c2ccccc2)cc1
20	-4%	2.7%	.	5%	CC1=C(c2ccc(C(C)C)cc2)S(=O)(=O)N=C1N1CCN(C(=O)c2ccco2)CC1
21	-5%	-1.9%	8	-2%	CCC(C)(C)n1nnnc1C(c1ccc(C)cc1)N1CCCC1 (stereo not drawn)
22	-9%	3.2%	-10	-8%	Cc1cc(C(=O)N2CCN(c3ccccc3)CC2)no1
23	10%	-0.1%	-4	-5%	COc1cc(C2C(C#N)=C(C)NC3=C2C(=O)CC(C)(C)C3)cc(OC)c1O (stereo not drawn)
24	-23%	1.8%	-13	3%	CCN(CC)CCCNC(=O)c1sc2ncn(CC(=O)Nc3ccc(C)c(Cl)c3)c(=O)c2c1C
25	1%	-0.8%	-16	1%	Cc1ccc(Cn2cccc(NC(=O)NC3CCCCC3)c2=O)cc1
26	11%	0.1%	.	17%	COc1cc(NC(=O)C(C)Oc2ccccc2)ccc1NC(=O)COc1ccccc1 (stereo not drawn)
27	0%	0.6%	.	.	Cc1csc(NC(=O)c2cc3ccccc3o2)n1
28	0%	0.8%	7	-1%	COc1ccc(C(=O)N(CCCO)C(C)C(=O)NC2CCCCC2)cc1OC (stereo not drawn)
29	9%	0.8%	9	5%	S=C(Nc1ccccc1)N1CCCCCCC1
30	8%	-3.9%	.	6%	Cn1c(=O)c2c(nc(NC3CCCC3)n2C)n(C)c1=O
31	16%	-0.3%	6	0%	COc1cccc2c1OCC(C(=O)O)C2 (stereo not drawn)
32	1%	-1.4%	-4	-1%	COc1ccc(S(=O)(=O)N2CC(O)CC2C(=O)OCC(=O)Nc2ccc(Cl)cn2)cc1 (stereo not drawn)
33	1%	7.0%	.	0%	CC(=O)CN1C(=O)NC(c2ccccc2)(c2ccccc2)C1=O
34	-7%	0.5%	.	-10%	O=C(Nc1ccc(F)c(Cl)c1)c1cncs1
35	-10%	4.3%	.	0%	CC(C)Cc1nc(SCC(=O)N2CCOCC2)c2c(=O)n(C)c(=O)n(C)c2n1
36	-14%	-0.6%	-3	-2%	C#CCSc1nc(-c2cccs2)ccc1C#N
37	9%	2.5%	1	-7%	CN1CC(=O)N(CCOc2ccccc2)C1=O
38	2%	-0.8%	.	.	CN1C[C@@H]2[C@@H]3C(=O)N(Cc4ccccc4)C(=O)[C@@H]3[C@](C)(C1=O)N2C(=O)c1ccc(Br)cc1
39	3%	-1.1%	10	3%	CCSc1nnc(NC(=O)Cn2cnc3c2c(=O)n(C)c(=O)n3C)s1
40	6%	0.1%	.	-43%	O=C(CSc1ccccc1)NCc1ccccc1
41	17%	2.0%	-5	-4%	COc1ccccc1NC(=O)/C(C#N)=C/c1cc([N+](=O)[O-])ccc1N1CCCC1
42	8%	2.5%	1	0%	CC(=O)Nc1cccc(N2C(=O)CC(Cc3ccccc3)C2=O)c1 (stereo not drawn)
43	-9%	1.2%	0	-19%	CCCCC(=O)NC(=S)Nc1ccccc1C(=O)Nc1ccccc1
44	-17%	?	-7	1%	CC(=O)Nc1ccc(C)c(NC(=S)Nc2ccc(F)cc2)c1
45	16%	1.6%	.	0%&-4%	CCOCCCNC(=O)c1cn(CC(C)C)c(=O)c2c1c1ccccc1n2C
46	8%	-0.1%	6	-23%	O=C(Nc1ccc2c(c1)OCCO2)NC1CCCCC1
47	-9%	-5.1%	.	0%	Cc1c(C)c2ccc(OC(C)C(=O)NC3CC(C)(C)NC(C)(C)C3)cc2oc1=O (stereo not drawn)
48	4%	4.6%	4	-5%	Cc1ccc(CSc2nc3sc(C)c(C)c3c(=O)n2Cc2ccco2)cc1
49	0%	-1.9%	.	.	O=C(COC(=O)/C=C/c1ccccc1)NNC(=O)c1ccc([N+](=O)[O-])cc1
50	-3%	0.5%	-1	3%	CCn1c(SCC(=O)N/N=C(\C)c2ccncc2)nnc1-c1ccc(C)cc1

# (cont.)
item	Rango release inh	Rango-impB inh	GLA inh pH 4.5	miR-21 reporter	compound
51	-2%	0.5%	2	-2%	Cc1ccc2nc(Nc3nc(CSc4nnc(C)s4)cc(=O)[nH]3)nc(C)c2c1
52	-6%	0.0%	3	0%	Clc1cccc(CN2CCCCCCC2)c1Cl
53	-21%	-4.7%	6	-5%	CC1CCN(c2c(NCc3ccc(C(=O)NCc4ccco4)cc3)c(=O)c2=O)CC1
54	1%	0.4%	.	0%	CN(CC(=O)Nc1cccc(F)c1)C(=O)C1CC(=O)N(Cc2ccccc2)C1 (stereo not drawn)
55	-20%	-2.2%	-6	-6%	COC(=O)NNC(=S)NCc1ccccc1
56	-10%	?	.	-8%	Cc1ccc(/C=C2/Sc3ccc(C(=O)NCc4ccccn4)cc3NC2=O)cc1
57	?	?	-6	-6%	CCCN1C(=O)/C(=C\c2nc3ccccc3c(=O)[nH]2)c2ccccc21
58	6%	1.5%	-1	9%	COc1cccc(NC(=O)CN(c2ccc([N+](=O)[O-])cc2)S(=O)(=O)c2ccccc2)c1
59	0%	-1.4%	5	-1%	CCOc1cc(NC(=S)NC)c(OCC)cc1NC(=O)c1ccco1
60	-9%	-1.8%	.	.	Cc1ccc(NC(=O)c2ncn(CC(=O)N3CCN(c4ccccn4)CC3)n2)cc1C
61	44%	1.1%	-3	-17%	CN(C(=O)CCCN1C(=O)c2cccc3cccc(c23)C1=O)c1ccccc1
62	-4%	-0.4%	.	.	C#CCOCCOCCOCCNc1nc(N2CCN(C(=O)CCCCCCCCCCNC(=O)[C@H](CCCCN)n3cc(CCO)nn3)CC2)nc(N2CCN(C(=O)CCCCCCCCCCNC(=O)[C@H](CCCCN)n3cc(CCCC(=O)O)nn3)CC2)n1
63	10%	-3.2%	5	5%	O=C(O)c1ccccc1-c1ccccc1C(=O)NCc1cccc(C(F)(F)F)c1
64	0%	-2.0%	.	9%	Cc1cc(C)c(OCC(=O)Nc2ccc(S(=O)(=O)N3CCOCC3)cc2)c(C)c1
65	6%	1.0%	3	26%	CC(C)(C)C(=O)Nc1ccc(Sc2ccc([N+](=O)[O-])cc2)cc1
66	1%	-2.5%	-2	-59%	Oc1ccccc1CNc1ccc2c(c1)OCCO2
67	1%	-1.0%	10	-5%	CC1=C(C(=O)OC2CCCCC2)C(c2ccco2)C2=C(CC(C)(C)CC2=O)N1 (stereo not drawn)
68	-20%	?	-7	-29%	CCOc1ccc(/C=C/C(=O)c2ccccc2)cc1OC
69	1%	-2.5%	.	.	COC(=O)c1cccc(NC(=O)CCc2c(C)noc2C)c1

# In the list so far, these contain an aryl methoxy group:
item	Rango release inh	Rango-impB inh	GLA inh pH 4.5	miR-21 reporter	compound
10	-5%	-4.6%	.	1%	COc1ccc(N2CC(C(=O)Nc3nnc(C4CCCCC4)s3)CC2=O)cc1 (stereo not drawn)
13	-16%	0.4%	.	.	COc1cc2ccccc2cc1C(=O)OCC(=O)c1c(N)n(C)c(=O)n(C)c1=O
23	10%	-0.1%	-4	-5%	COc1cc(C2C(C#N)=C(C)NC3=C2C(=O)CC(C)(C)C3)cc(OC)c1O (stereo not drawn)
26	11%	0.1%	.	17%	COc1cc(NC(=O)C(C)Oc2ccccc2)ccc1NC(=O)COc1ccccc1 (stereo not drawn)
28	0%	0.8%	7	-1%	COc1ccc(C(=O)N(CCCO)C(C)C(=O)NC2CCCCC2)cc1OC (stereo not drawn)
31	16%	-0.3%	6	0%	COc1cccc2c1OCC(C(=O)O)C2 (stereo not drawn)
32	1%	-1.4%	-4	-1%	COc1ccc(S(=O)(=O)N2CC(O)CC2C(=O)OCC(=O)Nc2ccc(Cl)cn2)cc1 (stereo not drawn)
41	17%	2.0%	-5	-4%	COc1ccccc1NC(=O)/C(C#N)=C/c1cc([N+](=O)[O-])ccc1N1CCCC1
58	6%	1.5%	-1	9%	COc1cccc(NC(=O)CN(c2ccc([N+](=O)[O-])cc2)S(=O)(=O)c2ccccc2)c1
68	-20%	?	-7	-29%	CCOc1ccc(/C=C/C(=O)c2ccccc2)cc1OC
